Bioassay records as filed in PubChem.
Cruzain inh Det – blocks cruzain activity in presence of Triton detergent; P25779; purified cruzain, Z-FR-AMC fluorescence, 0.01% Triton; Potency, µM, for the others: max response, negative = inhibition, most hits filed as inhibitors; 0.43% of 200,000 active; AID 1478; active means well fitted curve in the direction sought with a large enough effect; inconclusive means small, poorly fitted or top-dose-only effect, or another doubt; inactive means no such curve, though single readings can be large; an effect the other way counts as inactive or inconclusive;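 further: plate controls were neutral wells for no effect and buffer without enzyme for full effect; nearly all actives have a fitted effect of over 40% in size; top concentration of the series not given in the record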
Target sequence (P25779 123-467 limits assumed): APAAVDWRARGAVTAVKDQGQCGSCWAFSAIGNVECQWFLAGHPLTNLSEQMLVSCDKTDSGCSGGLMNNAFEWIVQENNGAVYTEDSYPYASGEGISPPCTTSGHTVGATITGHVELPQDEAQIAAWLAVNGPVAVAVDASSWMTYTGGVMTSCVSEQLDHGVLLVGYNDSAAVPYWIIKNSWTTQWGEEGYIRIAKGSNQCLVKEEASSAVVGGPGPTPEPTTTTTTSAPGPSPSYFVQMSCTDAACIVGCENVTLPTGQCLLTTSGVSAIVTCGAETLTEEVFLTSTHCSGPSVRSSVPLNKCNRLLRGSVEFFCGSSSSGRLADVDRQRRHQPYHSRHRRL
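In this qHTS format, compounds are incubated with 1.5 nM cruzain for 15 min at room temperature before 2 uM Z-FR-AMC is added. Release of AMC is followed at 360/450 nm, and progress is taken as the 60 s fluorescence difference.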
LASV entry inh – inhibitors of Lassa virus binding or cell entry; Lassa virus pseudotype entry inhibition, cell reporter; control for the full effect not named in the record; Potency, µM (top dose mostly 37.9 µM), inactives show top-dose activity change, negative = inhibition, most hits filed as inhibitors; 1.2% of 300,000 active; active means well fitted inhibition curve with a large enough effect; inconclusive means small, poorly fitted or top-dose-only effect, or effect the other way; inactive means flat fitted curve, though single readings scatter; tested in HEK293 cells; further: on the % scale 0 is the no-effect control and ±100 the full control effect; nearly all actives have a fitted effect of over 50% in size; luciferase read-out
StopGo reporter – lowers the luciferase signal of an FMDV 2A StopGo reporter; human cells with a luciferase reporter of 2A StopGo recoding; control for the full effect not named in the record; 1.2% of 410,000 active; Potency, µM (titrated, usually from 57.9 µM), for inactives: at the highest dose signal change, negative = less light; active = well fitted falling curve with a large enough effect; inconclusive = small, poorly fitted or top-dose-only effect; inactive = no such curve, though single readings can be large or run the other way; tested in HEK293T cells; further: on the % scale 0 is the no-effect control and ±100 the full control effect; nearly all actives have a fitted effect of over 45% in size; luciferase light after 4 h
NS1 inh – inhibitors of influenza NS1 protein function | Potency, µM (doses to about 46.1 µM), inactives show top-dose activity, positive = more growth | S. cerevisiae slowed by influenza A NS1, growth recovery by OD600 | 0.4% of 270,000 active; further: actives are rising curves; nearly all actives have a fitted effect of over 50% in size
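A cell-based growth assay was used: compounds that relieve NS1-induced slow growth of budding yeast raise OD600. Assay medium was yeast nitrogen base with ammonium sulphate and -URA supplement, pH 6.0, with 2% galactose.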
RE007 growth inh – less growth of the S. pombe RE007 Vpr strain. S. pombe RE007 Vpr strain, BacTiter-Glo ATP luminescence, 24 h; control for the full effect not named in the record. AID 651644. Potency, µM (titrated, usually from 92.2 µM), inactives show at the highest dose activity change, negative = less growth. 0.21% of 360,000 active; active = well fitted falling curve with a large enough effect; inconclusive = small, poorly fitted or top-dose-only effect; inactive = no such curve, though single readings can be large or run the other way;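 further: on the % scale 0 is the no-effect control and ±100 the full control effect; nearly all actives have a fitted effect of over 50% in size; the assay follows cell death caused by Vpr and the record does not say whether a fall means rescue or toxicity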
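Fission yeast strain RE007, carrying one chromosomally integrated HIV-1 vpr copy, was seeded at OD 0.01 in PMG+AL medium with 23 nL pinned compound. After 24 h at 30 °C and 99% humidity, viability was read by BacTiter-Glo luminescence.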
Cruzain noTriton – cruzain (T. cruzi) inhibition without detergent; P25779; purified cruzain, Z-FR-AMC fluorescence, no detergent; Potency, µM, inactives show max response, negative = inhibition, hits mostly inhibitors; 2.3% of 200,000 active; AID 1476; active means well fitted curve in the direction sought with a large enough effect; inconclusive means small, poorly fitted or top-dose-only effect, or another doubt; inactive means no such curve, though single readings can be large; an effect the other way counts as inactive or inconclusive;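 further: plate controls were enzyme without inhibitor for no effect and buffer without enzyme for full effect; nearly all actives have a fitted effect of over 40% in size; top concentration of the series not given in the record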
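Purified cruzain at 1.5 nM, pre-incubated 15 min with compound at room temperature in 100 mM sodium acetate pH 5.5, 5 mM DTT, 0.00005% Triton X-100. Reaction started with 2 uM Z-FR-AMC; AMC fluorescence increase over 60 s gives rate.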
Marburg entry inh – Marburg virus entry inhibition; Potency, µM (doses to about 37.8 µM), without a hit: at the top dose activity change, negative = inhibition, actives largely listed as inhibitors; AID 540276; 1.8% of 300,000 active; Marburg virus pseudotyped entry inhibition, cell reporter; control for the full effect not named in the record; about a third of the inactives were read at about 46 µM; active = well fitted inhibition curve with a large enough effect; inconclusive = small, poorly fitted or top-dose-only effect, or effect the other way; inactive = flat fitted curve, though single readings scatter; tested in HEK293 cells; about a fifth of its hits are not listed in these tables; further: on the % scale 0 is the no-effect control and ±100 the full control effect; luciferase read-out
SARS PLpro yeast – inhibitors of SARS-CoV papain-like protease in yeast. S. cerevisiae expressing SARS-CoV PLpro, growth rescue; control for the full effect not named in the record. Potency, µM (highest dose often 32.9 µM), for the others: at the top dose activity, positive = growth rescue. 0.19% of 330,000 active. AID 485353; further: 0% is about no effect; nearly all actives have a fitted effect of over 55% in size; growth read by luminescence after 48 h
* = called active by the depositor; ? = inconclusive; . = no result given; & = joins results of further samples; [ ] = dose if it differs, or a comment. Unless noted, the call rests on the fitted dose curve; in most records, active means well fitted rising curve with a large enough effect; inconclusive means small, poorly fitted or top-dose-only effect; inactive means no such curve, though single readings can be large or run the other way. Potency means the concentration at half of the fitted maximal effect.

SMILES	Cruzain inh Det	LASV entry inh	StopGo reporter	NS1 inh	RE007 growth inh	Cruzain noTriton	Marburg entry inh	SARS PLpro yeast
O=C(CCc1c[nH]c2ccccc12)N1CCN(S(=O)(=O)c2ccccc2)CC1	.	-11.0%	9.9%	.	-19.2%	.	-15.5%[46.1 µM]	0.3%
COc1ccc(N2CCN(CCNC(=O)c3c(C)cc(=O)oc3C)CC2)cc1	0.0%	10.8%	?	-3.4%	-11.0%	-4.3%	7.1%	-1.3%
CCCOC(=O)c1ccc(-c2ccc(C=O)o2)cc1	-9.8%	?	-34.1%	-39.1%	-16.0%	-6.1%	-44.6%	-23.7%
O=C(NCCN1CCCCCC1)C1CCCN1S(=O)(=O)c1cccc2nsnc12 (stereo not given)	.	1.2%	7.9%	0.8%	-7.9%	.	3.6%[46.1 µM]	0.8%
CC(C)(C)C1CCC(C(=O)NCC(c2cccs2)N2CCOCC2)CC1 (stereo not given)	.	.	-1.0%	-30.5%	6.2%	.	.	2.4%
C#CC(CC)(CC)NC(=O)Nc1ccc(OCC)cc1	.	-7.8%[46.1 µM]	15.6%	.	-15.2%	.	13.9%[46.1 µM]	0.4%
CN(C)c1c(F)cc(C(=O)NCc2ccccc2)cc1F	.	.	7.8%	-4.3%	-9.7%	.	.	-1.7%
CCN(CC)C(=O)CSc1nnc([C@@H](NC(=O)OC(C)(C)C)C(C)C)o1	1.8%	?	2.4%	-3.2%	-13.5%	10.6%	10.7%	4.7%
CCOC(=O)N1CCC(NC(=O)c2ccc3c(c2)N(Cc2cc(C)ccc2C)C(=O)c2ccccc2S3=O)CC1 (stereo not given)	-0.3%	?	?	.	.	?	-7.2%[46.1 µM]	.
C[N+]12CCCCC1[C@@H](CO)CCC2 (stereo not given in full)	.	.	-10.9%	-1.2%	-8.1%	.	.	-1.3%
Cc1cc(C)c2c(=O)[nH]n(C3CC(C)N(C)CC3C)c2n1 (stereo not given)	0.8%	3.3%	-3.8%	-3.8%	2.2%	1.0%	-18.1%	-1.9%
COc1cc(/C=C/C(=O)NCc2nc3ccccc3[nH]2)cc(OC)c1OC	.	.	-1.3%	-0.3%	-4.7%	.	.	0.1%
CC(C)(C)Nc1nc(Cl)nc(NC2CCCCC2)n1	.	-3.2%	23.0%	21.8%	-18.1%	.	-27.1%	-1.3%
Cc1nnc(Sc2c(N)n(C)c(=O)[nH]c2=O)s1	1.2%	-0.1%	-3.6%	-12.9%	-18.3%	6.2%	-3.4%	4.0%
CC1CCN(C(=O)CSc2nc(C3CC3)nc3ccccc23)CC1	.	?	51.0%[activator]	-28.5%	-5.3%	.	6.3%[46.1 µM]	-3.8%
CCOC(=O)Cn1nc(Cc2ccccc2)c2ccccc2c1=O	1.4%	?	-18.7%	-14.6%	2.1%	-7.5%	-15.5%[46.1 µM]	3.9%
Nc1nc2c(s1)C(=O)CC(c1ccccc1)C2 (stereo not given)	-2.1%	2.4%	4.0%	0.7%	6.2%	9.2%	7.4%	0.3%
COc1ccc(-c2c3c(=O)n(C)c(=O)n(C)c3c3c(C)nc4ccccc4n23)cc1	-3.2%	?	0.0%	.	.	11.3%	-0.2%[46.1 µM]	.
Cc1ccc(CNC(=O)CCNC(=O)Cn2ccc3ccccc3c2=O)o1	6.0%	-4.7%	8.0%	-1.1%	-0.1%[3.69 µM]	-6.4%	1.0%	6.9%
O=C(Cn1nc(-c2ccccc2)c2ccccc2c1=O)NN1CCOCC1	.	4.4%[46.1 µM]	3.1%	-1.8%	2.9%	.	?	1.1%

Given with two lines to a compound: entries from further up.
Screens in order: Cruzain inh Det, LASV entry inh, StopGo reporter, NS1 inh, RE007 growth inh, Cruzain noTriton, Marburg entry inh, SARS PLpro yeast
- Cc1ccc(CNC(=O)CCNC(=O)Cn2ccc3ccccc3c2=O)o1
  6.0%, -4.7%, 8.0%, -1.1%, -0.1%[3.69 µM], -6.4%, 1.0%, 6.9%
- Cc1nnc(Sc2c(N)n(C)c(=O)[nH]c2=O)s1
  1.2%, -0.1%, -3.6%, -12.9%, -18.3%, 6.2%, -3.4%, 4.0%

The list goes on.
SMILES	Cruzain inh Det	LASV entry inh	StopGo reporter	NS1 inh	RE007 growth inh	Cruzain noTriton	Marburg entry inh	SARS PLpro yeast
CC(CN1C(C)CCCC1C)OC(=O)c1cccc(Br)c1 (stereo not given)	.	15.7%[46.1 µM]	-1.3%	-3.8%	1.5%	.	-0.7%[46.1 µM]	-1.0%
CC1CCN(S(=O)(=O)c2ccc(S(=O)(=O)N3CCC4(CC3)OCCO4)cc2)CC1	-2.9%	33.5%	-4.1%	3.8%	7.4%	1.5%	-2.2%	9.2%
CCOC(=O)C1CCCN(C(=O)c2sc3nc(C)nc(N(CC)CC)c3c2C)C1 (stereo not given)	-6.1%	?	?	-18.3%	12.5%	8.3%	-28.6%	12.3%
Cn1c(=O)c(=O)n(C)c2cc(S(=O)(=O)NCc3ccc(Cl)cc3)ccc21	.	-7.3%	3.4%	.	-3.8%	.	-0.9%	2.6%
COc1ccccc1NC(=O)Cc1noc(CSc2nnc(N)s2)n1	-6.1%	-3.1%	-22.4%	1.3%	1.1%	4.7%	5.1%	0.4%
C=CCn1c(O)c(N=NC(=O)OCC)c2ccccc21	-6.6%	3.1%	-22.3%	-8.7%	-26.8%	0.3%	3.2%	-5.7%
COc1ccc(NC(=O)c2oc3ccccc3c2NC(=O)c2cc3ccccc3o2)cc1	-0.9%	0.6%[46.1 µM]	-9.4%	.	.	?	-11.8%[46.1 µM]	.
COc1cccc(OCC(=O)NNC(=O)c2ccc3ccccc3c2)c1	.	.	-4.4%	-6.6%	-10.3%	.	.	-5.0%
COc1ccc(-c2noc(=O)n2Cc2ccc(F)cc2Cl)cc1	.	9.0%	-5.6%	-3.0%	49.6%	.	?	-3.4%
O=C(O)CSc1cc(NS(=O)(=O)c2ccc(Br)cc2)c2ccccc2c1O	.	.	?	-96.1%	-8.8%	.	.	-11.1%
CC[C@]12CC[C@H](O)CC1=CCC1C2CC[C@]2(C)C(=O)CCC12 (stereo not given in full)	.	4.3%[46.1 µM]	-24.5%	.	9.9%	.	8.3%[46.1 µM]	-14.3%
O=C(Nc1ccc(Cl)cc1C(F)(F)F)C(Sc1cccc[n+]1[O-])c1ccccc1 (stereo not given)	.	0.4%	-7.1%	-0.6%	5.6%	.	6.6%	-1.1%
OCC#CCSc1nnc(-c2ccc(Br)cc2)o1	-2.9%	21.2%	13.0%	-11.8%	?	2.2%	-0.4%	-2.4%
CC(=O)c1c(C)n(C2CCCCC2)c2ccc(O)cc12	.	-3.7%	-24.0%	1.7%	-19.7%	.	-9.0%[46.1 µM]	0.3%
O=C(NCc1ccccc1)c1cc2ccccc2o1	0.3%&3.8%	?	37.8%&36.7%[activator]	13.3%	12.1%	-9.2%&-4.2%	?	-19.7%
COc1ccc(CCNC(=O)C2CCN(C(=O)c3ccc(OC)c(OC)c3)CC2)cc1	.	-0.5%	-26.3%	-4.8%	-7.8%	.	9.2%	2.0%
Cc1cc(C)cc(N2C(=O)CCSC23C(=O)N(Cc2ccccc2)c2ccccc23)c1 (stereo not given)	-0.9%	-6.1%[46.1 µM]	-9.8%	.	.	-15.7%	.	.
COc1ccc(CC(=O)N2N=C(C)CC2(O)C(F)(F)F)cc1 (stereo not given)	-0.7%	1.5%	1.1%	4.1%	40.7%	6.9%	2.2%	10.5%
Cc1cc(/C=N/NC(=O)c2ccncc2)c(C)n1-c1ccccc1	-1.7%	-12.6%	39.5%[activator]	-8.8%	25.7%	1.8%	4.5%	1.0%
O=C(Nc1ccc2ccccc2c1)c1cccnc1	-1.6%	-22.6%	26.7%	-14.4%	-11.1%	4.2%	?	-3.5%
O=C1NC(=Nc2cccnc2)S/C1=C/c1ccc(F)cc1	.	-10.9%	21.7%	-1.4%	-24.4%	.	-9.7%[46.1 µM]	3.7%
S=C(NCCCN1CCOCC1)Nc1cccc(Cl)c1	.	12.6µM*	4.6%	4.0%	-5.7%	.	-0.6%	-1.3%
CCOc1ccccc1NC(=O)CSc1nc2cc(OC)c(OC)cc2c2nc(CCn3c(C)nc4ccccc43)nn12	-1.7%	16.9%[46.1 µM]	-11.7%	.	.	-11.4%	10.5%[46.1 µM]	.
O=C(CSCc1ccccn1)Nc1ccccc1	2.3%	-2.4%	33.7%[activator]	-3.0%	3.3%	0.8%	?	4.0%
Cc1cc(C)c(COc2ccc(/C=N/n3c(C)n[nH]c3=S)cc2)c(C)c1	-7.5%	-17.2%	-27.1%	-33.8%	16.4%	-7.1%	6.9%	-38.3%
O=C(C1CCCC1)N1CCN(S(=O)(=O)c2ccc(F)cc2)CC1	.	-15.3%	-8.4%	-4.1%	-9.7%	.	-11.3%[46.1 µM]	-1.3%
CCCCn1c(N)c(N(CC)C(=O)c2ccc(C)cc2)c(=O)[nH]c1=O	.	.	-0.9%	-10.4%	-2.8%	.	-10.0%[46.1 µM]	-1.0%

A draw from above in order of length of the SMILES, largest number first.
SMILES	Cruzain inh Det	LASV entry inh	StopGo reporter	NS1 inh	RE007 growth inh	Cruzain noTriton	Marburg entry inh	SARS PLpro yeast
CCOc1ccccc1NC(=O)CSc1nc2cc(OC)c(OC)cc2c2nc(CCn3c(C)nc4ccccc43)nn12	-1.7%	16.9%[46.1 µM]	-11.7%	.	.	-11.4%	10.5%[46.1 µM]	.
Cc1cc(C)c(COc2ccc(/C=N/n3c(C)n[nH]c3=S)cc2)c(C)c1	-7.5%	-17.2%	-27.1%	-33.8%	16.4%	-7.1%	6.9%	-38.3%
O=C(C1CCCC1)N1CCN(S(=O)(=O)c2ccc(F)cc2)CC1	.	-15.3%	-8.4%	-4.1%	-9.7%	.	-11.3%[46.1 µM]	-1.3%
S=C(NCCCN1CCOCC1)Nc1cccc(Cl)c1	.	12.6µM*	4.6%	4.0%	-5.7%	.	-0.6%	-1.3%
O=C(Nc1ccc2ccccc2c1)c1cccnc1	-1.6%	-22.6%	26.7%	-14.4%	-11.1%	4.2%	?	-3.5%
